ClpP mod: qHTS Assay for Activators of ClpP | purified B. subtilis ClpP, FRET peptide cleavage, 20 min | hit rate 1.9% among 340,000 | AID 651965, 2013 | Potency, µM (doses to about 57.5 µM), without a hit: at the top dose activity change, negative = active; active = well fitted falling curve with a large enough effect; inconclusive = small, poorly fitted or top-dose-only effect; inactive = no such curve, though single readings can be large or run the other way; further: potency means the concentration at half of the fitted maximal effect; the source files actives as falling curves though it sought activators and does not explain the sign; nearly all actives have a fitted effect of over 65% in size; many hits overshoot -100%
Target sequence (P80244 whole entry, looked up): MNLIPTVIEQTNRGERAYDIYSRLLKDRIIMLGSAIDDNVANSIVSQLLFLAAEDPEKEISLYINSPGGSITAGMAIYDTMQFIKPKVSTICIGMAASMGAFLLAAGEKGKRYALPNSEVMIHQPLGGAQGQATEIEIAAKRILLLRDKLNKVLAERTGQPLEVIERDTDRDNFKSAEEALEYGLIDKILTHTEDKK
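FRET quenching reversal measured ClpP activation: 10 microg/mL B. subtilis ClpP at pH 8 with the FRET-FV decapeptide, read at 430 nm after 320 nm excitation. The 20-min minus 0-min signal was scaled between DMSO/no-enzyme wells and ADEP (5.8 microM final).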
TRPV1 PAM: human TRPV1 potentiation; hit rate 0.02% among 320,000; TRPV1-expressing cells, Fluo-8 calcium influx, capsaicin EC20 potentiation; host cell line not named in the record; control for the full effect not named in the record; potentiation, % at 8.33 µM; Q8NER1; active means potentiation above 80%; inconclusive means 30% to 80%; inactive means below 30%; further: 0% is about no effect
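Fluo-8 calcium influx in TRPV1-expressing cells, kinetic read (ex 480/em 520 nm). Compound added and read 3 min for agonist activity, followed by capsaicin at EC20 final and 2 min further read for enhancement.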
D2 PAM: human D2 receptor positive allosteric modulation; DiscoveRx D2 beta-arrestin cells, luminescence, 90 min; 100% = 57 uM dopamine signal; potentiation, % (test concentration not listed); hit rate 0.23% among 360,000; active = potentiation of 50% or more; inconclusive = 30% to 50%; inactive = 30% or less;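 further: compound concentration not given in the record; tested on top of an EC20 dose of dopamine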
Target sequence (P14416 whole entry, looked up): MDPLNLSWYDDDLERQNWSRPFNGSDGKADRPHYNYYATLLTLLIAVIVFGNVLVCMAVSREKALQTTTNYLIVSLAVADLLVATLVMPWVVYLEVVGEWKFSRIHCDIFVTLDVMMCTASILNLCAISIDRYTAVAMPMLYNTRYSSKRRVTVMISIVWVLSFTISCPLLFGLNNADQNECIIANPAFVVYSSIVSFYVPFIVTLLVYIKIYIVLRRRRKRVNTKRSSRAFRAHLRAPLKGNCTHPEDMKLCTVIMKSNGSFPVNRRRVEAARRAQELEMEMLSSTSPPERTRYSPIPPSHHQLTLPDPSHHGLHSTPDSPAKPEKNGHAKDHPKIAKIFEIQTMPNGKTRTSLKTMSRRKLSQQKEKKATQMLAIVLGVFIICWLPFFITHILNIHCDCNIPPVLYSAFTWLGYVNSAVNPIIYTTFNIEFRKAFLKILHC
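PathHunter beta-arrestin assay in DiscoveRx D2 cells. Compounds were added with an EC20 of dopamine (50 nM final) for 90 min at 37 deg C. Luminescence was read 1 h after detection reagent, with 57 uM dopamine as the EC100 control.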
gsp antag: antagonizes gsp, the McCune-Albright syndrome mutation; gsp-mutant cells, cAMP HTRF, 30 min; control for the full effect not named in the record; Potency, µM (titrated, usually from 76.9 µM), for inactives: at the highest dose activity change, negative = inhibition, usual class: inhibitors; hit rate 0.4% among 340,000; active = falling curve of any shape with a large fitted effect; inconclusive = falling curve, mostly with a smaller effect; inactive = flat or rising curve; cell line not stated here;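 further: intracellular cAMP measured with PDE inhibitor Ro 20-1724 present during compound exposure; potency means the concentration at half of the fitted maximal effect; on the % scale 0 is the no-effect control and ±100 the full control effect; nearly all actives have a fitted effect of over 65% in size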
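Cells, 2000/well, grown 16–24 h in DMEM 10% FBS with 0.5 mg/ml G418, then compounds plus […] (300 uM addition stock), 30 min at 37C. cAMP read by HTRF (cAMP-d2 and anti-cAMP antibody-K in lysis buffer) after 30 min RT.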
Menin MLL FP FL: displaces fluorescein MLL peptide from human menin; AID 1766; FP activity change, % at 61.4 µM; 290,000 tested, under 10 active; Fluorescence polarization, fluorescein-MLL peptide displacement from menin; inconclusive = falling polarisation curve, or a change in total fluorescence; inactive = total fluorescence flat and polarisation flat or rising; no compound was filed as active; the % refers to the polarisation; negative = inhibition;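 further: % of control where 0% means no effect; inhibitors lower the polarisation; unlabelled MLL peptide was the positive control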
Sfp PPTase inh: blocks B. subtilis Sfp PPTase activity; Q9F4F7; Biochemical Sfp PPTase activity, qHTS; Potency, µM, inactives show max response, negative = inhibition, hits mostly inhibitors; hit rate 3.5% among 310,000; AID 1490; active means well fitted inhibition curve with a large enough effect; inconclusive means small, poorly fitted or top-dose-only effect, or another doubt; inactive means no such curve, though single readings can be large or run the other way;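 further: the enzyme is Sfp with the accession as filed and its product quenches rhodamine fluorescence; potency means the concentration at half of the fitted maximal effect; 0% = enzyme reaction without inhibitor and -100% = no enzyme wells; top concentration of the series not given in the record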
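After 15 min at room temperature with compound, 15 nM Sfp received 5 uM rhodamine-CoA plus 12.5 uM BHQ-2-ybbR (50 mM Hepes pH 7.6, 10 mM MgCl2). Rate came from the fluorescence difference over 30 min, ex 525/em 598 nm.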
gsp agonist: gsp mutant agonism | gsp mutant cells, cAMP HTRF, 30 min; control for the full effect not named in the record | hit rate 0.13% among 340,000 | Potency, µM (highest dose often 76.9 µM), for inactives: at the top dose activation (cAMP increase), actives largely listed as activators | AID 624287; active = well fitted activation curve with a large enough effect; inconclusive = small, poorly fitted or top-dose-only effect, or another doubt; inactive = no such curve, though single readings can be large or run the other way; cell line not stated here;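 further: phosphodiesterase inhibitor Ro 20-1724 added with compounds to block cAMP breakdown; potency means the concentration at half of the fitted maximal effect; nearly all actives have a fitted effect of over 60% in size; about a fifth of the inactives were tested at one dose only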
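Cells in DMEM/10% FBS with G418 were pretreated with compounds in DMSO plus […] (300 uM stock) for 30 min at 37C. cAMP was measured by HTRF (cAMP-d2 plus anti-cAMP antibody-K) after 30 min at room temperature.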
An asterisk follows results filed as active; u = inconclusive; x = not tested or not shown; & = joins results of further samples; [ ] = another dose, or the depositor's remark.

SMILES	ClpP mod	TRPV1 PAM	D2 PAM	gsp antag	Menin MLL FP FL	Sfp PPTase inh	gsp agonist
COc1ccccc1CNC(=O)C1CCC(CNC(=O)[C@@H]2Cc3ccccc3CN2)CC1 (stereo not given in full)	-3.0%	u	-11	1%	x	-10%	-83%[inhibitor]
FC(F)(F)c1cccc(N2CCc3cn[nH]c32)c1	-8.8%	-11	20	3%	-3.6	12%	u
COc1ccc(OCC(=O)Nc2ccc(N3CCOCC3)cc2)cc1	-0.7%	1	9	0%	1.1	-6%	18%
Cc1noc(C)c1COc1ccccc1C(=O)N1CCN(c2cccc(Cl)c2)CC1	1.1%	-8	-6	-9%	x	x	17%
O=C1CCC(C(=O)Nc2nnc(C3CC3)s2)=NN1	x	-5	-2	x	0.9	-61%	15%[15.4 µM]
O=C(NCCC1CCCCN1S(=O)(=O)c1ccc(F)cc1)C(=O)NCC1CCCO1 (stereo not given)	108%	-3	9	6%	x	x	11%[15.4 µM]
Cc1cc([N+](=O)[O-])nn1CC(=O)NNC(=S)Nc1ccc([N+](=O)[O-])cc1	-1.3%	-2	-21	-8%	3.8	7%	-29%
CC1(C)CC2(CCO1)OC(=O)CC2C(=O)Nc1ccccc1Cl (stereo not given)	3.5%	15	-11	-11%	0.2	14%	8%
Cc1cccc(N=C2NC(=O)C(CO)(CO)S2)c1	-0.1%	3	7	0%	1.6	27%	0%[15.4 µM]
CC(=O)N1CCC(C(=O)N2CCN(S(=O)(=O)c3cccs3)CC2)CC1	0.7%	-1	1	-7%	x	9%	-4%[15.4 µM]
CC(C)NC(NC(=O)Cc1ccccc1)C(Cl)(Cl)Cl (stereo not given)	-5.5%	-2	-5	-3%	0.8	12%	17%
CSCC[C@H](NC(=O)NC1CCCC1)C(=O)O	-0.7%	8	3	-2%	3.0	11%	18%
COc1cccc(C(=O)N2CCN(Cc3cn[nH]c3-c3ccc(F)cc3F)CC2)c1	x	-4	-33	x	-1.9	14%	9%[15.4 µM]
CCN1C(=O)/C(=C\c2ccc(-c3cccc(C(=O)OC)c3)o2)SC1=Nc1ccc(C(=O)O)cc1	x	7	x	x	17	-28%	x
CCC(C)(C)NC(=O)CCCSc1nc2ccccc2s1	x	-8	-2	-6%	0.4	-17%	-14%[15.4 µM]
COc1ccc(Nc2nc3ccccc3nc2-n2nc(C)cc2C)cc1	0.6%	-2	-5	-3%	-2.0	u	15%
COC(=O)CCC(=O)c1oc2ccc(Cl)cc2c1NC(=O)CCCN1C(=O)c2ccccc2C1=O	-1.0%	x	4	-23%	0.9	35µM*	-30%
COc1ccc(OC)c(S(=O)(=O)Nc2ccc3oc4c(c3c2)C(=O)CCC4)c1	-1.8%	-19	11	-14%	-1.6	-16%	0%
CCOc1ccc(C(C#N)N2CCOCC2)cc1OC (stereo not given)	-1.1%	-23	14	1%	0.3	10%	16%
CC(C)CN1CCN(Cc2nc3ccccc3s2)CC1CCO (stereo not given)	x	-1	-18	14%	-0.4	2%	-2%[15.4 µM]
S=c1[nH]nc(C2CCCCC2)n1/N=C/c1ccccc1	-2.5%	-1	-7	-12%	-2.6	-11%	18%
Cc1nn(-c2ccccc2)c(C)c1NC(=O)COC(=O)/C=C/c1ccccc1	-2.4%	11	0	-4%	x	x	34%
C#CC(CC)(CC)NC(=O)c1nn(-c2ccccc2Cl)c(C)cc1=O	x	4	-8	-1%	1.7	-4%	10%[15.4 µM]
COc1ccc(C(C)=O)cc1CSc1ncccn1	x	1	1	10%	1.4	21%	u
CCCn1c(CCC(=O)O)nc2cc(S(=O)(=O)N(CC)CC)ccc21	0.3%	10	1	7%	0.4	-13%	-5%
Cc1nnc(NC(=O)c2ccc(C)c(S(=O)(=O)N3CCCCCC3)c2)s1	-4.5%	13	3	-18%	2.7	5%	-1%
CCOC(=O)CNC(=O)CSc1ncnc2c1cnn2-c1ccc(Cl)cc1	-3.5%	15	-9	24%	-1.0	4%	-9%
COc1ccc(CCNC(=O)c2ccc3c(c2)N(Cc2ccccc2)CCS3)cc1OC	4.0%&4.8%	23	u	u	x	2%	-1%
Cc1ccc(S(=O)(=O)N(CC(=O)NCC2CCCO2)C2CCCCC2)cc1 (stereo not given)	x	0	-8	-1%	-7.2	10%	3%[15.4 µM]
O=[N+]([O-])c1ccc(N/N=C/c2ccc[nH]2)cc1	-4.4%	u	-10	-11%	x	u	26%[15.4 µM]
CC(=O)c1ccc(N2C(=O)NC3(CCCCC3)C2=O)cc1	3.0%	19	1	-5%	3.5	13%	u
Nc1ccc2c(c1)N=[N+]([O-])c1cc(N)ccc1C2	-1.2%	17	-16	7%	2.1	23%	-42%[inhibitor]
Cc1nc(-c2ccccc2)sc1C(=O)/C=C/N(C)C	0.6%	-9	-9	-6%	u	-6%	5%
Cc1nc(OCc2ccccc2)c2ccccc2n1	1.4%	-7	-6	-6%	0.5	-8%	-9%
Nc1nnc(COc2cccc(C(F)(F)F)c2)s1	-0.2%	5	-19	2%	10	1%	5%
O=C1c2ccc([N+](=O)[O-])cc2C(=O)N1c1c[nH]c(=O)[nH]c1=O	x	0	1	-5%	-11	18%	15%[15.4 µM]
CCN1CCN(C(=O)c2nn(C)c3c2CS(=O)(=O)c2ccccc2-3)CC1	-5.5%	4	-4	12%	-5.9	5%	u
CC1Cc2ccccc2N1S(=O)(=O)c1cccc(C(=O)NCc2ccccn2)c1 (stereo not given)	1.0%	-38	-28	-15%	x	x	-37%[inhibitor]
CC(C(=O)Nc1sccc1C(N)=O)N1C(=O)C2CC=CCC2C1=O (stereo not given)	-4.6%	2	-8	8%	-0.7	-24%	12%
C/C(=N\NC(=O)C1CC1)c1ccc2c(c1)OCCO2	-0.2%	2	-5	18%	-2.8	9%	-2%[15.4 µM]

Reprinted from the part before: two compounds; new compounds follow.
SMILES	ClpP mod	TRPV1 PAM	D2 PAM	gsp antag	Menin MLL FP FL	Sfp PPTase inh	gsp agonist
CC(C(=O)Nc1sccc1C(N)=O)N1C(=O)C2CC=CCC2C1=O (stereo not given)	-4.6%	2	-8	8%	-0.7	-24%	12%
C/C(=N\NC(=O)C1CC1)c1ccc2c(c1)OCCO2	-0.2%	2	-5	18%	-2.8	9%	-2%[15.4 µM]
Cc1ccccc1NC(=O)Cc1nc(COC(=O)c2cc([N+](=O)[O-])ccc2N)cs1	-0.5%	2	5	-11%	x	5%	-21%
CCOc1cc(C(c2c(C)[nH][nH]c2=O)c2c(C)[nH][nH]c2=O)ccc1OS(=O)(=O)c1ccccc1	-1.6%	-2	0	0%	2.5	4%	u
CCCCN(C)CCC(=O)Nc1ccc(C)cc1	2.8%	23	-11	11%	3.3	-5%	-56%[inhibitor]
CCO[C@H]1OC(C(=O)NCc2ccccc2)=C[C@@H](c2ccc(Br)cc2)[C@@H]1CCCO	1.5%	-8	-5	-12%	-1.0	13%	-8%
N#C/C(=C\c1ccc(O)cc1)C(=O)NCc1cccc(Cl)c1	1.3%	u	-4	-7%	0.2	u	-5%
COC(=O)/C=C1/SC(=NC(=O)c2cccc([N+](=O)[O-])c2)NC1=O	2.2%	-4	-7	-5%	x	-21%	2%
CC(C(=O)NCCCn1ccnc1)(c1ccccc1)c1ccccc1	0.1%	-15	-5	0%	-0.4	15%	8%[15.4 µM]
COC(=O)c1[nH]c2cc(OC)ccc2c1NC(=O)CCN1CCN(Cc2ccc3c(c2)OCO3)CC1	u	u	-17	2%	2.5	12%	-42%[inhibitor]
CCNc1nc(OCCNC(C)=O)nc(N(C)C)n1	1.1%	-1	5	17%	-0.3	15%	-23%
Cc1cccc(Nc2nc(-c3ccccc3)cs2)n1	-4.2%	-7	-5	-3%	1.2	-28%	1%
CC1NC(=O)N(C)C2NC(=O)N(C)C(c3ccccc3)C12 (stereo not given)	-0.1%	-3	-12	-1%	0.7	8%	-27%
Cc1cccc(NC(=O)c2ccc(NS(=O)(=O)c3c(C)noc3C)cc2)c1	1.4%	-2	3	-10%	-0.2	17%	-17%
CN1CCN(C(=O)c2cc3ccccc3cc2O)CC1	-4.9%	11	-27	11%	x	x	-5%
O=C(NCc1ccc(N2CCCC2=O)cc1)c1ccc(F)cc1	x	8	-6	-6%	-2.2	19%	33%[15.4 µM]
O=C(O)c1cccnc1C(=O)N1CCc2c([nH]c3ccccc23)C1C(F)(F)F (stereo not given)	0.2%	5	-52	-2%	-3.3	-17%	5%[15.4 µM]
COc1ccc2cc(C(=O)N3CCOCC3)sc(=O)c2c1OC	0.9%	-7	-4	5%	3.0	23%	-16%
CCOc1ccc(C(=O)COC(=O)C2CCN(c3ccc(C(F)(F)F)cn3)CC2)cc1	-9.7%	-7	-5	-10%	x	x	u
COC(CNC(=O)c1cc(C)nn1-c1ccccc1)OC	-2.4%	15	-7	20%	0.9	23%	6%
O=C(CSc1ccc(-c2ccc(Cl)cc2)nn1)N1CCCc2ccccc21	-1.3%	-5	-14	-25%	-1.0	4%	-9%
O=C(Cc1n[nH]c(=O)c2ccccc12)OCC(=O)c1ccc(F)cc1	-1.2%	-6	-12	8%	x	x	18%[15.4 µM]
c1ccc(Cc2nc3ccccc3o2)cc1	-0.3%	-4	-2	4%	1.6	9%	-23%
Cc1cc(NC(=O)c2cc(-c3ccccc3Cl)nc3ccccc23)no1	-1.7%	u	-10	-12%	-4.6	-13%	8%[15.4 µM]
COc1ccc(-c2nnc(-c3ccc(N)cc3)o2)cc1	28µM*	-13	0	-2%	0.2	-2%	4%
O=C(CSc1nnc(-c2cccnc2)n1Cc1ccco1)c1ccc2ccccc2c1	-13%	9	-8	u	0.1	-29%	-3%
CCn1nc(C)cc1-c1nnc(SCC(=O)Nc2ccccc2)n1CCCOC	x	-40	-7	7%	-0.4	-4%	-7%[15.4 µM]
CCC(C)NC(=O)CSc1nc2ccccc2c(=O)n1-c1c(C)n(C)n(-c2ccccc2)c1=O (stereo not given)	-0.2%	2	1	1%	0.4	-10%	14%[15.4 µM]
O=C(C1COc2ccccc2O1)N1CCn2c(nc3ccccc32)C1 (stereo not given)	-3.6%	-18	1	15%	-0.8	6%	25%
O=C(O)c1ccc2c(c1)ncn2C1CCCC1	1.1%	4	-5	4%	-1.2	10%	10%
O=C(c1cc(C2CC2)nn1-c1ccccc1)N1CCN(S(=O)(=O)c2ccccc2)CC1	-0.6%	-12	-37	-29%	x	x	-18%

Screening data deposited in PubChem BioAssay by National Center for Advancing Translational Sciences (NCATS).
